VDR inh: inhibitors of human vitamin D receptor; P11473; VDR-SRC2-3 peptide fluorescence polarization, 2 h; Potency, µM, for inactives: max response, negative = inhibition, actives largely listed as inhibitors; actives 0.93% (n = 400,000); active = well fitted inhibition curve with a large enough effect; inconclusive = small, poorly fitted or top-dose-only effect, or another doubt; inactive = no such curve, though single readings can be large or run the other way; note: series mostly up to about 120 µM
Target sequence (P11473 whole entry, looked up): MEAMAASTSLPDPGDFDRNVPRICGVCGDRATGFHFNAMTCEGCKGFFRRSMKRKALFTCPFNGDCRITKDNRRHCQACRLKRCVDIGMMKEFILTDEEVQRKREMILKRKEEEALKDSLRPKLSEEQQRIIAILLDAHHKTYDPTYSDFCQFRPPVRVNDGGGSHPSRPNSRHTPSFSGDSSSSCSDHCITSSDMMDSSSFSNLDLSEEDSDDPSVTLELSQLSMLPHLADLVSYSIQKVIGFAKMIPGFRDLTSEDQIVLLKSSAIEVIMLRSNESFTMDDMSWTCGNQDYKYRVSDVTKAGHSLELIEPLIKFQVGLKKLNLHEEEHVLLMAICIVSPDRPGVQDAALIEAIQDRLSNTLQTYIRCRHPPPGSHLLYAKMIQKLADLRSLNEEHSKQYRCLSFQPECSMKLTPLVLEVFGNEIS
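The screen uses fluorescence polarization to detect compounds that interfere with recruitment of the SRC2-3 coactivator peptide to VDR; plates are read after 2 h at room temperature.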
Active calls of the source: *; ? = inconclusive; & = joins results of further samples; [ ] = dose if it differs, or a comment. % is set by controls: 0 for no effect and ±100 for the full control effect; potency is the fitted concentration of half-maximal effect. Some of the compounds tested; count on the stated rates, not on these rows.

Sample of the layout, 17 compounds:
VDR inh	SMILES
0%	CSc1nc2ncc3c(n2n1)CC(C)(C)CC3=O
-14%	Cc1cc2sc(NC(=O)c3ccco3)nc2cc1Cl
-8%	COc1ccc(-c2csc(Nc3ccccn3)n2)cc1
-4%&5%	O=C1OCCN1C(=O)[C@H]1[C@H](c2ccc(F)cc2)C(c2cccc(Cl)c2)=NN1c1ccc(Br)cc1
-2%	Cc1cc(Cn2nnc3ccccc32)c(O)c(C(C)(C)C)c1
9%	Cc1ccc2[nH]c(=O)c(COC(=O)c3ccccn3)cc2c1
-5%	Cc1ccc(N(CC(=O)NC2CCCC2)C(=O)CNC(=O)c2cccs2)cc1C
-2%	Cc1cnc(NC(=O)c2ccc(-c3nc4ccccc4s3)o2)s1
-11%	CCCC(=O)Nc1ccc(NC(=S)NC(=O)c2cccs2)cc1
3%	CCN(c1ccccc1)S(=O)(=O)c1cccc(C(=O)OCc2nc3sc(C)c(C)c3c(=O)[nH]2)c1
-15%	Cc1ccc(C(C)C)cc1OCCN1CCCC1
0%	CCOC(=O)c1c(NC(=O)c2cccs2)sc(C)c1C
6%	CN1CCc2cc3c(c4c2C1CC41CCC(=NO)CC1)OCO3 (configuration not stated)
3%	Cc1cc(Br)c(NC(=O)C(C)Sc2nnnn2C)c(Br)c1 (configuration not stated)
-13%	CC(C)c1ccc(CN2CCN(C(=O)CSc3nnnn3C3CC3)CC2)cc1
5%	CC1(C)NC(=O)N(CCCSc2ccc(Cl)cc2)C1=O
-3%	Cc1cccc(/C=C2\Sc3ccc(C(=O)N4CCCCC4)cc3N(C)C2=O)c1

The whole of this part, repeating the preview:
VDR inh	SMILES
0%	CSc1nc2ncc3c(n2n1)CC(C)(C)CC3=O
-14%	Cc1cc2sc(NC(=O)c3ccco3)nc2cc1Cl
-8%	COc1ccc(-c2csc(Nc3ccccn3)n2)cc1
-4%&5%	O=C1OCCN1C(=O)[C@H]1[C@H](c2ccc(F)cc2)C(c2cccc(Cl)c2)=NN1c1ccc(Br)cc1
-2%	Cc1cc(Cn2nnc3ccccc32)c(O)c(C(C)(C)C)c1
9%	Cc1ccc2[nH]c(=O)c(COC(=O)c3ccccn3)cc2c1
-5%	Cc1ccc(N(CC(=O)NC2CCCC2)C(=O)CNC(=O)c2cccs2)cc1C
-2%	Cc1cnc(NC(=O)c2ccc(-c3nc4ccccc4s3)o2)s1
-11%	CCCC(=O)Nc1ccc(NC(=S)NC(=O)c2cccs2)cc1
3%	CCN(c1ccccc1)S(=O)(=O)c1cccc(C(=O)OCc2nc3sc(C)c(C)c3c(=O)[nH]2)c1
-15%	Cc1ccc(C(C)C)cc1OCCN1CCCC1
0%	CCOC(=O)c1c(NC(=O)c2cccs2)sc(C)c1C
6%	CN1CCc2cc3c(c4c2C1CC41CCC(=NO)CC1)OCO3 (configuration not stated)
3%	Cc1cc(Br)c(NC(=O)C(C)Sc2nnnn2C)c(Br)c1 (configuration not stated)
-13%	CC(C)c1ccc(CN2CCN(C(=O)CSc3nnnn3C3CC3)CC2)cc1
5%	CC1(C)NC(=O)N(CCCSc2ccc(Cl)cc2)C1=O
-3%	Cc1cccc(/C=C2\Sc3ccc(C(=O)N4CCCCC4)cc3N(C)C2=O)c1
5%	CCOC(=O)c1cnc2ccc(OCC)cc2c1NCCN1CCOCC1
5%	OCCCNc1c2ccccc2nc2ccccc12
-7%	Cc1ccnc(NC(=O)c2ccc(Cl)c(NC(=O)c3ccccc3C)c2)c1
21%	Cc1nc(-c2ccccc2O)n(-c2ccccc2)n1
11%	Cc1ccc(NC(=O)c2ccc(CN3CC(=O)N4CCCCC4C3=O)cc2)c(Cl)c1 (configuration not stated)
-9%	O=C1N=NC2=C1c1c3ccccc3c(O)n1CC2
-8%	O=C(Nc1ccccc1C(F)(F)F)C1CCN(c2nnc(-n3cccc3)s2)CC1
2%	CCCc1cc(=O)oc2cc(C)cc(OC(C)C(=O)NCc3ccccn3)c12 (configuration not stated)
12%	O=C(Nc1ccon1)c1cc2ccccc2oc1=O
8%	CN(C(=O)Nc1cnccc1C(F)(F)F)C1CCCCC1
-8%	CC(=O)N(C)c1ccc(NS(=O)(=O)Cc2ccccc2)cc1
0%	Nc1ccc2ccccc2c1N=Nc1ccccc1
-8%	Cc1c(O)c2c3c(cccc3c1O)C(=O)N(c1ccccc1)C2=O
-1%&-10%	CCOc1ccc2nc(S(N)(=O)=O)sc2c1
5%	CCCSc1ncc(Cl)c(C(=O)Nc2ccc(S(=O)(=O)N3CCCCC3C)cc2)n1 (configuration not stated)
-5%	COc1cc(CNC2CCCC2)cc(OC)c1OC
-15%	O=C1c2ccccc2C(Nc2ccc(S(=O)(=O)N3CCOCC3)cc2)N1c1ccccn1 (configuration not stated)
35%[activator]	Cn1cnc(S(=O)(=O)Nc2ccc(Cl)c(C(F)(F)F)c2)c1
-22%	COc1cc(OC)c(NC(=O)C2CCN(S(=O)(=O)c3ccc4c(c3)oc(=O)n4C)CC2)cc1Cl
18%	Cc1ccc(Nc2nc3ccccc3c3nncn23)cc1C
-18%	NCCCC[C@H](N)c1nnc([C@H](CC(=O)O)NC(=O)C2CCNCC2)o1
-12%	CCCN(CCC)S(=O)(=O)c1ccc(NS(C)(=O)=O)cc1
-16%	CCOC(=O)NC(C)N1C(=O)C2C3C=CC(C3)C2C1=O (configuration not stated)
1%	Cc1c(Cl)cccc1NC(=S)N1CCN(Cc2ccccc2)CC1
11%	Cc1cc(N2C(=O)C3CCC(c4ccccc4)CC3C2=O)no1 (configuration not stated)
-7%	CCc1cccc2c(-c3csc(=NC)n3C)c[nH]c12
-3%	C/C(=N\Nc1cc(N2CCCCC2)nc(C)n1)c1ccc(Br)cc1
-7%&2%	CCOCCCNC(=O)c1cn(CC)c2ccc(S(=O)(=O)N3CCOCC3)cc2c1=O
-5%	C#CCn1c(=O)n(-c2cccc(Cl)c2C)c(=O)c2c3c(sc21)CN(C(C)=O)CC3
-7%	C=CCn1c(=O)c2ccccc2n2c(SCc3nnc(-c4ccccc4Br)o3)nnc12
?	CCOc1ccc2c(c1)nc(SCC(=O)c1cccs1)n2C
-7%	O=C(NC(=S)Nc1ccc(S(=O)(=O)Nc2nccs2)cc1)c1ccccc1
-10%	Cc1cccc(NC(=O)c2sc3nc(N4CCOCC4)c4c(c3c2N)CCCC4)c1

The listing continues:
VDR inh	SMILES
-7%	CC1(C)C2CC[C@]3(C)C(CC=C4[C@@H]5C[C@@](C)(CO)[C@@H]6C[C@@]5(CC[C@]43C)C(=O)O6)[C@@]2(C)CC[C@@H]1O (some centres not stated)
-9%	O=C(COc1nc2ccccc2nc1N1CCOCC1)NCC(F)(F)F
-6%	Cc1oc(-c2ccccc2F)nc1CN1CCC(C(=O)NCc2cccs2)CC1
-5%	CC(C)C(C)(C#N)NC(=O)CSc1nncn1-c1ccccc1 (configuration not stated)
-13%	Cn1c(SCC(=O)c2ccccc2)ncc(C(=O)Nc2ccc(F)cc2)c1=O
-5%	CN(C)c1ccc(O)c2c1CC1CC3[C@@H](N(C)C)C(=O)C(C(N)=O)C(=O)[C@]3(O)C(=O)C1C2=O (some centres not stated)
-12%&-13%&6%	CNCCC(Oc1ccccc1OC)c1ccccc1 (configuration not stated)
-12%	O=S1(=O)CC(O)C(N2CCC(c3ccccc3)CC2)C1 (configuration not stated)
3%	CCOc1ccccc1N/C=C(\C#N)c1nc2ccccc2n1C
-4%	O=C(COC(=O)c1ccc(S(=O)(=O)NCc2ccco2)cc1)Nc1ccccc1OC(F)F
5%	COc1cc2c(=O)n(Cc3ccco3)c(=O)n(CC(=O)c3cccc(Br)c3)c2cc1OC
-25%	CCN(CC)S(=O)(=O)c1ccc2c(c1)nc(SCc1nc3ccsc3c(=O)[nH]1)n2CC
5%	COC(=O)COc1ccc2occ(C(C)=O)c2c1
-2%	COc1ccc(CC(=O)OCC(=O)NCc2ccccc2Cl)cc1OC
82%[activator]	CN1/C(=C\C(=O)CN2C(=O)NC3(CCCCCC3)C2=O)C(C)(C)c2ccccc21
-5%	CCCCNC(=O)COC(=O)c1ccc(NC(C)=O)cc1
-7%	CC(C)Oc1ccc(C(=O)Nc2ccc3c(c2)n(C)c(=O)n3C)cc1
3%	COc1ccc(N2CC(C(=O)N/N=C/c3ccccc3)CC2=O)cc1 (configuration not stated)
18%	CCOC(=O)c1c(-c2ccccc2)csc1NC(=O)c1nc(SCC)ncc1Cl
3%	Cc1cc(-c2c(C)[nH]n(-c3ccc(Cl)cc3)c2=O)n[nH]1
3%&-6%	CCN(c1nc(N)c(C(=O)N=C(N)N)nc1Cl)C(C)C
7%	O=C(NC(=S)Nc1ccc(F)c([N+](=O)[O-])c1)c1ccccc1F
7%	Cc1cccc(NC(=O)Cn2nc(C)c3nn(-c4ccc(Cl)cc4)c(C)c3c2=O)c1C
-6%	CN(Cc1ccccc1)C(=O)C(=O)c1cn(CC(=O)N2CCCC2)c2ccccc12
3%	CCOC(=O)c1c(NC(=O)CSc2nnc(-c3cccnc3)o2)sc(C)c1C
12%	Cc1ccc2nc(-c3ccc(Cl)c(NC(=O)c4cccnc4)c3)oc2c1
-13%	CN(C)S(=O)(=O)c1cccc(C(=O)NCCc2ccccc2)c1
2%	COc1ccc(-c2cc(=O)oc3c(C)c(OC(C)C(=O)NCc4ccccn4)ccc23)cc1 (configuration not stated)
5%	Cn1cc(/C=C2\SC(=S)N(N3CCOCC3)C2=O)c2ccccc21
10%	CCOc1ccc(CCNS(=O)(=O)c2cnc[nH]2)cc1OCC
-24%	CCOc1ccccc1NC(=O)c1ccc(C(=O)Nc2ccccc2OCC)cc1
-10%	Cc1ccc(SCC(=O)NC(=O)NC2CCCC2)c(C)c1
-3%	CCOCc1c(C(=O)NCc2ccccc2CN2CCCC2)oc2ccccc12
0%	COc1ccc2cc(C(=O)C3CCCN(Cc4cnc(C)s4)C3)ccc2c1 (configuration not stated)
-2%	O=c1[nH]c(=O)n(Cc2ccco2)c2c1C(C(F)(F)F)(C(F)(F)F)N=C(c1ccco1)N2
6%	Cc1ccc(-c2noc(C3CCCN(S(=O)(=O)c4ccc5ccccc5c4)C3)n2)o1 (configuration not stated)
-4%	O=C1c2ccccc2C(=O)N1CCOc1ccc(F)cc1
-10%	CN(C)/C=C(\C#N)C(=O)c1cccc(Oc2ccc(Br)cc2)c1
?	CN(CC(=O)Nc1ccccc1Cl)C(=O)CCc1nc2ccccc2c(=O)[nH]1
?	COCC(=O)Nc1cc(C)cn(Cc2c(F)cccc2Cl)c1=O
14%	COc1ccc([N+](=O)[O-])cc1NC(=O)C1C2C=CC(C2)C1C(=O)O (configuration not stated)
-9%	Cc1cc(=O)oc2cc(NC(=S)NNC(=O)c3c(Cl)cnn3C)ccc12
16%	O=C(NCCN1CCOCC1)C1CCC(CNS(=O)(=O)c2ccc(Cl)cc2)CC1 (configuration not stated)
12%	CSc1nsc(/C=C/Nc2ccc(Cl)cc2)c1C#N
5%	COC(=O)CCC(=O)OC1(C)C(=O)C=C2C=C(C3CC3)N(C3CC3)C=C2C1=O (configuration not stated)
8%	C=CCNC(=S)Nc1sc2c(c1C(=O)OCC)CC(C(C)C)OC2 (configuration not stated)
-20%	CCOC(=O)Cc1csc(NC(=O)COc2ccccc2OC)n1
9%	O=C1CC(C(=O)Nc2ncccn2)C(c2ccccc2)O1 (configuration not stated)
12%	O=C(c1ccccc1F)N1CCN(S(=O)(=O)c2ccc(S(=O)(=O)N3CCCCC3)cc2)CC1
3%	CCOc1ccc(C(=O)Nc2c3c(nn2-c2cccc(Cl)c2)CS(=O)C3)cc1 (configuration not stated)

Next part:
VDR inh	SMILES
-10%	COc1ccc(S(=O)(=O)Nc2cccc(-n3cnnn3)c2)cc1OC
6%	CCOC(=O)c1c(P(=O)(N2CCOCC2)N2CCOCC2)noc1N
2%	CCOC(=O)c1sc(NC(=O)c2cccnc2)c(C#N)c1C
-2%	COc1ccc(S(=O)(=O)NC2CCCCC2)cc1C(=O)N1CCCCC1
12%	Cc1cc(C)cc(NC(=O)COC(=O)CCC2CCCC2)c1
-2%	CC1CCC(C(C)C)C(O)C1 (configuration not stated)
-2%	COc1cc2c(cc1OC)C(c1ccccc1C(F)(F)F)CC(=O)N2 (configuration not stated)
-11%	CCN(CC)S(=O)(=O)c1ccc(-c2cn3ccc(C)cc3n2)cc1
0%	CCOC(=O)c1ccccc1Oc1c(F)c(F)nc(NCCO)c1F
9%	COCCNC(=O)NC1(C(F)(F)F)Oc2ccc(Cl)cc2O1 (configuration not stated)
8%	COc1ccc(Cl)cc1S(=O)(=O)NCc1cccs1
?	NC(=O)Cn1nc([N+](=O)[O-])nc1Oc1ccccc1C(=O)N1CCOCC1
-18%	Cc1ccccc1N1C(=O)CSC1=C(C#N)C#N
19%	CCN(CC)S(=O)(=O)c1cccc(C(=O)NCC2CCCO2)c1 (configuration not stated)
0%	Cc1ccc(C(=O)N[C@H](C(=O)NC2CCCCCCC2)C(C)C)cc1
-3%	COC(C[C@H](O)C[C@@H](O)[C@H](C)OCc1ccccc1)OC
20%	CC1(NC(=O)N2CCOCC2)CCS(=O)(=O)C1 (configuration not stated)
-10%	N#CC(Sc1ccccn1)c1ccc(Cl)cc1Cl (configuration not stated)
?	CCn1c(CSc2nnc(-c3ccncc3)n2C)nc2cc(C(=O)O)ccc21
2%	C=CCn1c(C23CC4CC(CC(C4)C2)C3)n[nH]c1=S
3%	CCc1ccccc1NC(=S)N(CCN(C)C)C(C)c1ccccn1 (configuration not stated)
19%	CSc1ccc(CCNC(=O)c2c(C)oc3ncn(C)c(=O)c23)cc1
13%	Cc1c(C(=O)N(C)C)sc2c1c(=O)n(-c1ccc(F)cc1)c(=O)n2CC(=O)N(C)c1ccccc1
4%	COc1ccccc1/C=C/C(=O)Nc1ccc2c(c1)OCCO2
6%	CNC(=O)CCCN1C(=O)CCn2nc(-c3cn(C)c4ccccc34)cc21
-5%	S=C(NCc1ccccc1)NC1CCCc2ccccc21 (configuration not stated)
1%	O=C1CC(SCc2nc3ccccc3[nH]2)C(=O)N1c1cccc(F)c1 (configuration not stated)
-15%	CCN(CCCNC(=O)CCc1nc(-c2ccc(C)cc2)no1)c1cccc(C)c1
